Mtb growth: M. tuberculosis H37Rv growth inhibitors, H37Rv strain (AID 1626) | M. tuberculosis H37Rv growth inhibition; higher % means a stronger effect | inhibition, % at 10 µM, or IC50 in µM where a hit was titrated | actives 0.95% (n = 220,000);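 active = confirmed in a dose series; inconclusive = inhibition above 80% but not taken into the dose series; inactive = below 80% or under 30% at every dose of the series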;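 note: bacteria incubated seven days before Alamar blue readout; 0% = bacteria only wells and 100% = bacteria with antibiotic wells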
YopH inh: YopH (Yersinia) phosphatase inhibition. fluorescence Ex485/Em525. inhibition, %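 (about 10 µM by stock and volumes)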. actives 0.16% (n = 140,000). AID 898;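 active = inhibition of 50% or more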;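 note: controls were vehicle for no effect and minimum signal wells for full effect; inactives centre near -20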
Mtb betalactam: beta-lactam sensitization of Mtb H37Rv; M. tuberculosis H37Rv growth with meropenem, percent inhibition; hits of this screen are not shown here; inhibition, % at 25 µM; actives 0.27% (n = 330,000); AID 434955;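 active = about 74% or more and at least 40 points above the plate without the antibiotic, then above 30% in a dose series; inconclusive = first-round hits that could not be retested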;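 note: growth measured after seven days incubation then overnight dye step; 0% = bacteria only wells and 100% = bacteria with antibiotic; twin plates without the antibiotic show which effects depend on it; some results filed as inactive read as strong as hits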
Arbovirus anti: blocks arbovirus infection | arbovirus infection cell-based antiviral screen | inhibition, % at 10 µM | actives 0.37% (n = 200,000);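 active = inhibition from about 30%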;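 note: bluetongue infection of BSR cells; cell survival read as ATP light after 72 h; 0% = infected wells without compound and 100% = uninfected wells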
RecA intein inh: inhibitors of M. tuberculosis RecA intein splicing; actives 0.75% (n = 290,000); inhibition, %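 (about 9 µM by stock and volumes)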; AID 2221; P9WHJ3; cell-free RecA intein splicing, fluorescence; in the data active = inhibition above about 30%; inconclusive = no clear call, values can overlap the other calls;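 note: 0% = vehicle wells and 100% = reference inhibitor control wells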
Target sequence (P9WHJ3 whole entry, looked up): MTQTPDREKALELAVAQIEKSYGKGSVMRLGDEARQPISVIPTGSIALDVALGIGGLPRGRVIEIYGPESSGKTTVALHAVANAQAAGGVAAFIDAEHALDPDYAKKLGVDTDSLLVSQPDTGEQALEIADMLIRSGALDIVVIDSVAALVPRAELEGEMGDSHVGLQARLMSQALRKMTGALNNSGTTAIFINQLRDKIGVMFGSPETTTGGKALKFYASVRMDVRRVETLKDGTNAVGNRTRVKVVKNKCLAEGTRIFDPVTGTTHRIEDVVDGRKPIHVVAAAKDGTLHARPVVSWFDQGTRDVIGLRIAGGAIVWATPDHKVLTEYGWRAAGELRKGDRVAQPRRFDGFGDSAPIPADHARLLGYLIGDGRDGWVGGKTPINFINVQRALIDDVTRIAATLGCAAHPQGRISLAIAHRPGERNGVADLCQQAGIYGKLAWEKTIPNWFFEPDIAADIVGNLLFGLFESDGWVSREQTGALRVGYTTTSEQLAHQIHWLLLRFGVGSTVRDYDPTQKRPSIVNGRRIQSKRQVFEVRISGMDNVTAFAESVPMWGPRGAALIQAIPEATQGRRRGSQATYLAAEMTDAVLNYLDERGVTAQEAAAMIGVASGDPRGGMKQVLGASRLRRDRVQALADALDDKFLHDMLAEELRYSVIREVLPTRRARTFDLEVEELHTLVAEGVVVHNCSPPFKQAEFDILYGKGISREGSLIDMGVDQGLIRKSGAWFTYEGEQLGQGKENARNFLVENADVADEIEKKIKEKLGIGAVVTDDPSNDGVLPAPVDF
Arbovirus anti repeat: second read-out of Arbovirus anti, no call of its own (marks repeat the call); inhibition, %; measured here: 10K subset replicate screen; many hits read low in the repeat;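 first of two repeat runs on a subset; 0% = infected and 100% = uninfected wells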
* hit, by the source's call; ? = inconclusive; . = no result given.

SMILES | Mtb growth | YopH inh | Mtb betalactam | Arbovirus anti | RecA intein inh | others
Cc1c(NC(C)c2ccccc2O)c(=O)n(-c2ccccc2)n1C (centres undefined) | -5% | 2 | -9 | 1 | -2.6
CN1CCN(CC(C)(C)NS(=O)(=O)c2ccc(Cl)cc2)CC1 | -1% | 21 | 4 | -3 | 1.1
CC(C)CCn1c(SCC(N)=O)nc2c1c(=O)n(C)c(=O)n2C | 7% | -9 | 1 | 7 | 0.3 | Arbovirus anti repeat=8
O=C(NC1CCN(C(=S)Nc2ccc(F)cc2)CC1)C1CCCCC1 | . | . | 0 | . | -1.2
Cn1c(N)c(C(=O)COC(=O)Cn2cc(C(F)(F)F)ccc2=O)c(=O)n(C)c1=O | -1% | -30 | -3 | -5 | 1.9
COc1ccc(S(=O)(=O)N2CCCCC2C(=O)O)cc1 (centres undefined) | 3% | -26 | 7 | 0 | -1.9
CCN(CC)S(=O)(=O)c1cc(NC(=O)C(CC(C)C)NC(N)=O)ccc1C (centres undefined) | 3% | . | -1 | 6 | 2.1
O=C(c1ccccc1)C(Nc1ccccn1)c1ccccc1 (centres undefined) | 0% | . | -6 | 2 | -10
c1ccc(CN2CCCC3(CCCN(Cc4nc(CC5CC5)no4)C3)C2)cc1 (centres undefined) | -2% | . | -3 | 0 | -16
Cc1oc2c(CN3CCOCC3)c(O)ccc2c(=O)c1-c1ccc(Cl)cc1 | -8% | . | -3 | . | -1.2
CCc1ccc(C(=O)NC(CC(C)C)C(=O)O)cc1 (centres undefined) | -6% | -44 | 3 | 12 | 1.2
CC1(C)Cc2nc3n[nH]c(N)c3cc2CO1 | 0% | -46 | -12 | 2 | -1.0
CC(OC(=O)c1cccs1)C(=O)NCC1CCCO1 (centres undefined) | -8% | -26 | -1 | -2 | 0.6
CC(C)(C)NC(=O)CN(C(=O)C1CSC(=O)C1)c1ccccc1F (centres undefined) | 3% | . | -8 | 2 | -0.2
O=C(COC(=O)C1=COCCO1)Nc1ccc(F)cc1 | . | . | 56 | . | 0.2
Cc1ccc(NC(=O)C2CC(=O)N(c3ccc4c5c(cccc35)CC4)C2)cc1 (centres undefined) | 0% | -6 | 20 | -22 | 4.0
COc1ccc(-c2cc3nc4ccccc4n3c(N)c2C#N)cc1 | -5% | . | 2 | . | -0.9
O=C(NCCc1c[nH]c2ccccc12)c1cccc(Br)c1 | . | . | 2 | . | 6.1
Cc1ccc(CNCc2ccc3c(c2)OCO3)c(C)c1 | . | . | -3 | . | -4.0
Cc1ccc(NC(=O)/C(=C/c2cccs2)NC(=O)c2ccco2)c(C)c1 | 8% | -19 | 11 | 0 | 1.4
O=C(Oc1ccccc1)c1ccc(COC(=O)c2cnccn2)cc1 | . | -1 | 100 | 4 | 1.3
COC(=O)c1ccc(CSc2nnc3ccccn23)o1 | -9% | -14 | 5 | -2 | -1.0
CCOC(=O)C1=C(C)NC(C)=C(C(=O)OCC)C1c1ccc([N+](=O)[O-])s1 | 4% | . | -12 | . | -22
O=C1CN(CC(=O)Nc2ccc(Cl)cc2)CCN1 | -2% | -20 | -9 | 5 | 0.1
O=C(N/N=C/c1ccco1)c1ccc(OCc2ccccc2)cc1 | -5% | . | 66 | . | -12

Later entries
SMILES | Mtb growth | YopH inh | Mtb betalactam | Arbovirus anti | RecA intein inh | others
COc1ccc(C2OC(=O)CC2C(=O)NC2CCCC(C)C2C)cc1OC (centres undefined) | 5% | -20 | -3 | 3 | 3.0
CCOC(=O)c1sc(NC(=O)COc2ccc3c(c2)OCO3)nc1C | . | . | 5 | . | -0.2
CCc1nc2ccccc2c(C(=O)NCc2ccccc2)c1C | 10% | . | 0 | -1 | 0.5
O=C(/C=C/c1ccc(Cl)cc1)NC(=S)Nc1ccc(CN2CCOCC2)cc1 | 8% | -18 | 9 | 0 | -3.5
O=C(Nc1ccnn1C1CCN(C/C=C/c2ccccc2)CC1)c1cccc(F)c1 | . | . | -18 | . | 1.3
COc1ccc(N(C)C(=O)CCC(=O)Nc2ccc3nc(N4CCOCC4)cc(C)c3c2)c(OC)c1 | -3% | -27 | 4 | -10 | -2.0
CCOc1ccccc1N1C(=O)c2ccc(C(=O)Nc3cccnc3)cc2C1=O | -4% | -24 | -2 | 2 | 0.5 | Arbovirus anti repeat=4
S=c1[nH]nc(CCCc2n[nH]c(=S)o2)o1 | 7% | . | 2 | . | 0.2
COc1ccc(CC(NC(C)=O)C(=O)NC2CCN(C(=O)c3ccccc3F)CC2)cc1 (centres undefined) | . | . | 3 | . | 0.9
CCOC(=O)c1cccc(NC(=O)CSc2nnc(-c3ccncc3)n2CCCOC)c1 | 2% | -40 | -3 | 12 | -2.2
CC(=O)c1c(C)[nH]c(C(=O)OC2CCOC2=O)c1C (centres undefined) | -5% | -30 | -1 | 5 | -0.5
O=C(NCCc1ccc(F)cc1)c1cc(-c2ccncc2)nc2ccccc12 | -3% | . | . | . | -1.5
Cc1ccc(NC(=O)c2ccccc2OCC(=O)Nc2cccc(Cl)c2C)nc1 | 12% | . | -7 | -21 | 6.9
O=C1CN(C(=S)NC(=O)c2ccc(-c3ccccc3)cc2)CCN1 | 9% | . | ? | -1 | -0.2
CCn1c(C)c2c(C)nnc(C)c2c1C | 1% | 0 | -10 | 1 | -1.6 | Arbovirus anti repeat=4
Cc1cccc(NC(=O)CSc2nnc(CNC(=O)c3ccco3)o2)c1 | . | . | -4 | . | 0.9
COC(=O)c1ccc(CNC(=O)C2CCC(=O)N(CCN3CCOCC3)C2)cc1 (centres undefined) | . | . | -1 | . | -0.5
O=C(NCC1CCCO1)c1ccc(Oc2ccc([N+](=O)[O-])cc2)cc1 (centres undefined) | -3% | . | -9 | 4 | -0.8
Cc1oc(-c2ccccc2F)nc1CS(=O)(=O)CC(=O)NCCCN1CC(C)CC(C)C1 (centres undefined) | . | . | -4 | . | 0.0
Cc1ccc(-c2[nH]ncc2CN2CCN(C(=O)c3cccs3)CC2)cc1C | . | . | ? | . | 4.8
CN(C)C(=O)c1cc(C(=O)c2ccc(C(F)(F)F)cc2F)c[nH]1 | 0% | . | -4 | 17 | -0.9
NC(=O)C1CCN(CC(=O)Nc2nccs2)CC1 | . | . | -8 | . | -1.3
O=C(O)CCN(CCC(=O)O)c1nnc(SCc2ccccc2)s1 | -6% | -9 | -10 | 0 | -0.9
O=C(NCCC1=CCCCC1)c1cccc(S(=O)(=O)N2CCCCC2)c1 | . | . | -14 | . | -3.7
C=CCn1c(C2CC2)n[nH]c1=S | 5% | . | 3 | 8 | 2.9

Looked up by compound from the entries so far (7):
SMILES | Mtb growth | YopH inh | Mtb betalactam | Arbovirus anti | RecA intein inh | others
CC(=O)c1c(C)[nH]c(C(=O)OC2CCOC2=O)c1C (centres undefined) | -5% | -30 | -1 | 5 | -0.5
COc1ccc(CC(NC(C)=O)C(=O)NC2CCN(C(=O)c3ccccc3F)CC2)cc1 (centres undefined) | . | . | 3 | . | 0.9
COC(=O)c1ccc(CNC(=O)C2CCC(=O)N(CCN3CCOCC3)C2)cc1 (centres undefined) | . | . | -1 | . | -0.5
COc1ccc(N(C)C(=O)CCC(=O)Nc2ccc3nc(N4CCOCC4)cc(C)c3c2)c(OC)c1 | -3% | -27 | 4 | -10 | -2.0
Cc1cccc(NC(=O)CSc2nnc(CNC(=O)c3ccco3)o2)c1 | . | . | -4 | . | 0.9
CCOC(=O)c1sc(NC(=O)COc2ccc3c(c2)OCO3)nc1C | . | . | 5 | . | -0.2
O=C(/C=C/c1ccc(Cl)cc1)NC(=S)Nc1ccc(CN2CCOCC2)cc1 | 8% | -18 | 9 | 0 | -3.5

The main list resumes, starting two compounds before the break.
SMILES | Mtb growth | YopH inh | Mtb betalactam | Arbovirus anti | RecA intein inh | others
O=C(NCCC1=CCCCC1)c1cccc(S(=O)(=O)N2CCCCC2)c1 | . | . | -14 | . | -3.7
C=CCn1c(C2CC2)n[nH]c1=S | 5% | . | 3 | 8 | 2.9
C=CCSc1ncccc1C(=O)NCCc1ccccc1 | . | . | 2 | . | 2.8
Cc1ccc(S(=O)(=O)NC(=NCC(=O)O)c2ccccc2)cc1 | -3% | -44 | -2 | 2 | 0.2
COc1ccc(C(C)NC(=O)Cc2cccs2)cc1OC (centres undefined) | . | . | -10 | . | 0.8
O=C(NC(=S)Nc1cc([N+](=O)[O-])ccc1O)C1CC1 | . | . | -4 | . | 2.1
COc1ccccc1NC(=O)C1=C(C)Nc2nnnn2C1c1cccc(Br)c1 (centres undefined) | 2% | -23 | 5 | -24 | -2.9
Cc1ccc(-c2cc(C(=O)NCCCN3CCCC3)c3ccccc3n2)cc1C | . | . | 7 | . | -4.3
CC1=C(C(=O)Nc2ccccc2)S(=O)(=O)CCO1 | -5% | . | 8 | . | 0.4
COc1ccc(N(C(=O)c2cnccn2)C(C(=O)NC2CCCCC2)c2ccc(O)cc2)cc1 (centres undefined) | 4% | . | -10 | -2 | 3.7
COc1ccc(-c2nnc(SCC(=O)NCc3cccs3)n2CC(C)C)cc1 | -1% | 1 | 3 | 6 | 1.5
COc1ccc(Oc2c(C)oc3cc(OC(=O)N(C)C)ccc3c2=O)cc1 | . | . | 9 | . | -1.5
COc1ccc(NC(=O)CSc2nccn2Cc2ccc(F)cc2)cc1 | . | . | -21 | . | 2.8
CC(C)(C)c1ccc(C(=O)N2CCC(C(=O)c3ccccc3)CC2)cc1 | . | . | 34 | . | 9.7
CCOC(=O)C1C2c3ccccc3O[C@@]1(C)N=C1SCC(=O)N12 (some centres undefined) | -11% | -33 | -7 | -2 | 1.7
O=C(CN1CCN(Cc2ccc3c(c2)OCO3)CC1)c1c[nH]c2ccccc12 | -4% | -23 | -7 | -7 | 0.6
COc1ccc(CCNC(=O)c2ccc(-c3ccc([N+](=O)[O-])cc3)o2)cc1OC | -2% | -24 | -1 | 4 | 0.5
COc1cccc(C(=O)N2N=C(c3ccccc3)CC2(O)C(F)(F)F)c1 (centres undefined) | 5% | -19 | 9 | 24 | -4.9
COc1ccc(CN(C(=O)CNC(=O)c2ccco2)C(C(=O)NCC2CCCO2)c2ccc(OC)c(OC)c2)cc1 (centres undefined) | . | . | -7 | . | 1.0
CCn1c(=S)sc2c(=O)n(CC(=O)Nc3cccc(OC)c3)c(C)nc21 | . | . | 2 | . | -3.1
CCC(=O)NC(=S)Nc1ccc(NC(=O)c2ccc([N+](=O)[O-])cc2)cc1 | 0% | -14 | 68 | -13 | -1.3
Cc1c2cnn(CC(=O)N3CCC4(CC3)OCCO4)c(=O)c2c(C)n1Cc1ccccc1Cl | . | . | 6 | . | 1.7
Cc1ccc(NC(=O)CN2C(=O)C(C)Oc3ccccc32)nc1 (centres undefined) | -2% | -35 | -20 | -3 | 2.4
CCCOC(=O)c1ccc(-c2c(C)noc2-c2ccc(OC)cc2O)o1 | 3% | 8 | 8 | 10 | .
Fc1cccc(Cc2noc(CN3CCCCC3c3ccccn3)n2)c1 (centres undefined) | -8% | . | 5 | 6 | 2.1
Cc1sc2nc(SCc3ccccc3)n(Cc3ccco3)c(=O)c2c1C | 0% | -8 | -15 | 3 | .
CCOC(=O)c1ccc(-c2ccc(/C=N/NC(=O)CN(c3ccccc3Cl)S(C)(=O)=O)o2)cc1 | 6% | -14 | 12 | 1 | 2.1

(next part)
SMILES | Mtb growth | YopH inh | Mtb betalactam | Arbovirus anti | RecA intein inh | others
CCn1c(N)nc2c1c(=O)n(C)c(=O)n2C | -8% | -50 | -3 | -3 | -8.0 | Arbovirus anti repeat=-2
COc1cccc(SCc2noc(C(=O)NCCN(C)C)c2C(=O)NCCN(C)C)c1 | -7% | . | -3 | . | -1.7
CC(Cc1ccccc1)NC(=O)/C=C/c1ccc(Cl)cc1 (centres undefined) | 0% | -48 | 12 | 2 | 3.5
COc1cccc(-n2nc(C(=O)Nc3ccc4c(c3)OCO4)c3ccccc3c2=O)c1 | 7% | -24 | 4 | 3 | -0.5
Cc1csc2cc(-c3cccc([N+](=O)[O-])c3)c(-c3cccc([N+](=O)[O-])c3)c[n+]12 | 7% | -16 | -4 | -1 | -2.5
CCOC(=O)N1CCN(c2ccc([N+](=O)[O-])cc2)CC1 | 1% | -16 | 3 | 0 | 0.0
CCOc1ccc(S(=O)(=O)N2Cc3ccccc3CC2C(=O)NCCCn2ccnc2)cc1 (centres undefined) | -8% | -31 | -5 | 5 | 2.0
COc1ccc(Cl)cc1C(=O)N1CCC2(CC1)CC(=O)c1ccccc1O2 | . | . | -17 | . | 1.5
CC1(C)CC(=O)C=C(NCCN2CCN(C(=O)Nc3ccc(Cl)cc3)CC2)C1 | -3% | -47 | -14 | 5 | 0.9 | Arbovirus anti repeat=1
COc1ccc([C@@H](C)NC(=O)c2ccc3oc(C(C)C)nc3c2)cc1 | . | . | -2 | . | -1.6

Source: PubChem BioAssay

Not all compounds are listed. The share of hits here may be higher or lower than overall.
